# Source: PubChem BioAssay (Johns Hopkins Ion Channel Center)
# KCNQ2 enhance: enhances the rat KCNQ2 potassium channel | B-score at 10 µM | CHO-K1 KCNQ2, FluxOR thallium flux fluorescence; active compounds read high | hit rate 0.54% among 310,000 | O88943;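 active = fluorescence ratio B-score at least 3 SD of library B-scores, with initial fluorescence B-score within 3 SD, cut at about 5.3 in these data; same plate scores as AID 2156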;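 note: B-score of peak minus minimum over baseline fluorescence ratio after K+ and Tl+ stimulus; positive B-score means potentiation of KCNQ2 with more thallium influx and brighter signal; only the inactives scoring about 0 or higher are listed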
# Target sequence (O88943 whole entry, looked up): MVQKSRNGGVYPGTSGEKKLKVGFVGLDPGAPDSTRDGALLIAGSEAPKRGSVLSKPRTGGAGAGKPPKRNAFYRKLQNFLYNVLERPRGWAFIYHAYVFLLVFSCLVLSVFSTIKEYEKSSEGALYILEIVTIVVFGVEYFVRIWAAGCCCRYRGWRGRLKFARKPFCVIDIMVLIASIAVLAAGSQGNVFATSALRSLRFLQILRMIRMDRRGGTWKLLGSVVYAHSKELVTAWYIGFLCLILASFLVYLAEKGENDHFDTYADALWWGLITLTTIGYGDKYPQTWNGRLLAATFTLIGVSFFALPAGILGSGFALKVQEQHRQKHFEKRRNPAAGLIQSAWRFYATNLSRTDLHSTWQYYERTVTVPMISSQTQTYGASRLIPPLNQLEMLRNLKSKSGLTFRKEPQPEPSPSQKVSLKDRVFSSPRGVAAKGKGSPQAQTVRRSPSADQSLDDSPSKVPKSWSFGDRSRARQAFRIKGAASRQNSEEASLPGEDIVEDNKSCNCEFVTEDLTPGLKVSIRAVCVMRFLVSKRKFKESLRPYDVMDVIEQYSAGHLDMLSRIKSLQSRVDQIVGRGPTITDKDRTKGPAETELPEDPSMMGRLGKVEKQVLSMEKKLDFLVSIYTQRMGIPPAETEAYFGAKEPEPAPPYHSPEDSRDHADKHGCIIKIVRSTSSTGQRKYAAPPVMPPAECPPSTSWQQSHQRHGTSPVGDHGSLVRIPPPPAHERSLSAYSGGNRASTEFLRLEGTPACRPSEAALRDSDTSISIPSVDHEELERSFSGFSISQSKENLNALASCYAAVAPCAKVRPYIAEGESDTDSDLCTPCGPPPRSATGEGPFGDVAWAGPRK
# KCNQ2 enhance baseline: second read-out of KCNQ2 enhance, no call of its own (marks repeat the call); B-score; compound at 10 µM; measured here: initial fluorescence intensity artifact check;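 brightness before thallium and not channel activity; 0 = typical well and far values either way flag optical interference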
# * = called active by the depositor.
SMILES,KCNQ2 enhance,KCNQ2 enhance baseline
CC[C@@H](C)C(C(=O)N1CCN(C(=O)OC(C)(C)C)CC1)n1cc(-c2cn([C@@H](C)C(=O)N3CCN(C(=O)OC(C)(C)C)CC3)nn2)nn1 (stereo not given in full),0.68,-0.27
CCn1ncc(/C=N\NC(=O)c2cc(-c3ccc(C)cc3C)nc3ccccc23)c1C,0.25,-0.58
NC(=O)COC(=O)c1cccnc1Nc1ccccc1F,0.55,-0.06
C=CCn1c(SCC(=O)Nc2c(C)n(C)n(-c3ccccc3)c2=O)nc2scc(-c3ccccc3)c2c1=O,0.2,0.39
CN(C)S(=O)(=O)c1ccc(C(=O)NNc2nc(-c3ccccc3)c3cc(Br)ccc3n2)cc1,0.34,-0.7
O=C1SC(Cc2ccccc2)C(=O)N1c1ccccc1 (stereo not given),0.33,0.43
COc1cccc(CNC(=O)C2CCN(S(=O)(=O)N3CCCC3)CC2)c1,1.4,-0.18
CCN(C(=O)CSc1nnnn1-c1ccccc1)c1c(N)n(Cc2ccccc2)c(=O)[nH]c1=O,0.17,0.53
Cc1ccsc1C(=O)OCC(=O)Nc1c(Cl)cccc1C(F)(F)F,0.55,-0.01
COc1ccc(C2CC(c3ccc(OC)cc3OC(C)=O)=NN2C(=O)c2ccccc2)cc1 (stereo not given),1.1,-1.8
CC(C)Cn1c(N)c(C(=O)NCC2CCCO2)c2nc3ccccc3nc21 (stereo not given),0.67,-1.3
COc1ccc(C(=O)c2sc(Nc3ccccc3F)nc2N)cc1,1.8,0.34
O=C(Nc1cccc(-c2cccc(Cl)c2)c1)C1CCN(Cc2ccon2)CC1,0.19,1.4
O/N=C(/Cc1ccccn1)c1ccccc1,0.47,0.03
C=CCN1C(=O)c2ccc(C(=O)OCC(=O)Nc3ccc(S(N)(=O)=O)cc3)cc2C1=O,0.11,-0.6
N#C/C(=C\Nc1ccccc1O)c1nc2ccccc2o1,0.04,2
CCNC(=O)C12CCC(C)(C(=O)O1)C2(C)C (stereo not given),0.38,0.34
CCCN(CC1CC1)C(=S)NC(=O)C1CC1,2,-0.93
Fc1cc(F)c2nc(N3CCCC3)sc2c1,0.13,-1.2
COc1ccc(Cn2nnnc2C(CC(C)C)N2CCN(c3ccccc3)CC2)cc1 (stereo not given),0.26,0.57
CC1N(C(=O)N2CCOCC2)CCN1S(=O)(=O)c1cccc(C(F)(F)F)c1 (stereo not given),1.5,3.1
Cc1nnc(NC(=O)C2C3C=CC(O3)C2C(=O)O)s1 (stereo not given),1.4,2.4
O=C(CCC(=O)Nc1cc(C(F)(F)F)ccc1Cl)N/N=C\c1cc([N+](=O)[O-])ccc1O,1.5,-2.5
CCC(=O)NC(Nc1cc(C)ccn1)(C(F)(F)F)C(F)(F)F,0.13,-1.7
Cc1ccc(-n2ncc3c2CC(C)(C)CC3NC(=O)CCCN2CCCCC2=O)cc1 (stereo not given),0.6,-0.13
CCOC(=O)C1=C(C)NC(=S)NC1c1cc(C)sc1C (stereo not given),1.2,-0.03
O=C(CCCN1C(=O)c2ccccc2C1=O)Nc1ccc(Br)cn1,2.1,-0.16
CCOC(=O)c1ccc(NC(=O)COc2ccc(-n3cnnn3)cc2)cc1,0.94,-2.1
COc1cc(NC(=O)c2ccco2)c(C(=O)OCC(=O)c2c[nH]c3ccccc23)cc1OC,0.13,0.53
CCN1CCN(C(=O)c2cc3cc4ccc(OC)cc4nc3s2)CC1,1.1,0.04
COc1ccc(-c2[nH]ncc2CN(C)Cc2nonc2C)c(OC)c1,1,-0.38
COc1ccc(N2CC(O)=C(c3nc(-c4ccc(Br)cc4)cs3)C2=N)cc1,1,3.1
COC(=O)c1sc2nc(-c3ccco3)ccc2c1N,0.7,0.33
CCOc1ccccc1CN1C(=O)NC(C)(c2ccccc2)C1=O (stereo not given),0.1,0.47
COc1cc(C(=O)Nc2ccc(S(=O)(=O)N3CCOCC3)cc2)c([N+](=O)[O-])cc1OC,0.72,-1.1
CCOC(=O)C1(Cc2cccc(OC)c2)CCN(Cc2ccon2)CC1,0.09,1.3
S=C(NC1CC1)NC1CCCc2ccccc21 (stereo not given),0.19,1.3
COc1ccc(Cc2nnc(N/N=C/c3ccc(O)cc3O)[nH]c2=O)cc1OC,0.17,0.23
N=c1c(S(=O)(=O)c2ccccc2)cc2c(=O)n3ccccc3nc2n1C1CCCC1,0.48,-2
CC1CC(Nc2cccc(O)c2)=CC(=O)O1 (stereo not given),0.39,0.83
Cc1cc(-c2ccccc2)n(-c2ccccc2)n1,0.02,-0.19
Cc1ccc(CCN2CCN=C2N(C)C)cc1,0.91,-0.78
C=CCn1cccc(C(=O)Nc2ccc(N(C)C)cc2)c1=O,0.02,-0.07
O=c1[nH]c(-c2ccc(Cl)cc2)nc2c1cnn2-c1ccccc1,0.03,1.4
COc1cccc(/C=N/NC(=O)C(=O)N2CCCCCC2)c1OC,1.6,-0.78
Cc1cccc(N(C(=O)Cn2nnc(-c3ccc(F)cc3)n2)C(C(=O)NC(C)(C)C)c2ccncc2)c1 (stereo not given),0.65,-0.76
COC(=O)C1=C(C)NC(=O)/C1=C\c1cccs1,1.5,-2.2
CCOc1ccc(S(=O)(=O)N2CCCCCC2)cc1,0.81,0.04
CCOC(=O)C1CCN(C(=O)Nc2ccc(C)c(Cl)c2)CC1,0.68,1.2
N/C(=N\OC(=O)Cc1ccccc1)c1ccccc1Cl,0.09,1.2
O=C(NCc1ccccn1)c1ccc(CS(=O)(=O)Cc2ccc(Cl)cc2)o1,0.65,-1.4
N/C(=N\OC(=O)Cc1ccc(Cl)cc1)c1ccccn1,2,4.3
O=C(Nc1ccccc1F)c1cc(-c2ccco2)nc2ccccc12,0.04,0.59
COc1ccc(N2CC(O)=C(c3nc(-c4ccc(F)cc4)cs3)C2=N)cc1OC,0.07,1.6
O=C(Nc1ccc2c(c1)OCCO2)c1ccc(Cl)c(S(=O)(=O)N2CCCCC2)c1,2.8,-2.7
O=C(Nc1nnc(SCCC2OCCO2)s1)C1CC(=O)N(c2ccc(F)cc2)C1 (stereo not given),0.45,0.26
COc1ccc(NC(=O)CS(=O)(=O)Cc2nc(-c3ccc(C)cc3)oc2C)cc1,0.08,1.2
COC(=O)C1CCN(C(=O)COC(=O)COc2ccc(C#N)cc2)CC1,0.92,-0.84
S=C(Nc1ccc(Cl)cc1Cl)NC1CCN(Cc2ccccc2)CC1,0.91,-0.13
Nn1c(Cc2cccc3ccccc23)n[nH]c1=S,0.16,0.13

# Later entries
SMILES,KCNQ2 enhance,KCNQ2 enhance baseline
Cc1ccc(CNC(=O)Nc2cccc(C)c2)cc1,3.4,0.22
COC(=O)/C=C/c1ccc(OC(=O)OC)c(OC(=O)OC)c1,0.63,0.15
C/C(Cc1ccccc1)=N\NC(=O)CNC(=O)c1cccc(Br)c1,0.1,-0.16
Cc1cccc(C(=O)NNS(=O)(=O)c2ccc(F)cc2)c1,0.95,-0.64
O=S(=O)(c1cnccc1N1CCN(/N=C/c2ccc(Br)cc2)CC1)N1CCCCC1,1.4,-0.87
Cc1cc(-n2c(C)cc(C(=O)CSc3nncn3C(C)C)c2C)no1,0.44,0.47
CCN1CCCC1CNC(=O)c1cc2ccc(OC)cc2[nH]1 (stereo not given),0.76,0.14
CC(=O)Oc1ccccc1C1C[C@]2(C)CC(=O)NC2N1C(C)=O (stereo not given in full),0.24,-1.2
COc1ccccc1C1/C(=C(/O)c2ccccc2)C(=O)C(=O)N1CC(C)O (stereo not given),0.41,-0.04
CCNC(=O)NC(=O)COC(=O)CCCSc1nc2ccccc2[nH]1,0.31,-0.29
COc1ccc(/C=C/C(=O)Nc2cc(C(F)(F)F)ccc2Cl)cc1,0.25,-0.45
CCC(NC(=S)NC1CCCCC1)c1ccccc1 (stereo not given),12*,0.6*
NC(=O)C1CCN(C(=S)c2ccc(-c3ccc(Br)cc3)o2)CC1,1,-1.9
O=C(C[n+]1ccccc1)Nc1ccccc1,1.2,-0.51
COc1ccc(-c2nc3ccccc3c(=O)n2CCOc2ccccc2C)cc1,0.07,-1

# Entries of single compounds, looked up by structure.
# Entry for COc1cc(C(=O)Nc2ccc(S(=O)(=O)N3CCOCC3)cc2)c([N+](=O)[O-])cc1OC → KCNQ2 enhance: 0.72; KCNQ2 enhance baseline: -1.1
# Entry for COc1ccc(/C=C/C(=O)Nc2cc(C(F)(F)F)ccc2Cl)cc1 → KCNQ2 enhance: 0.25; KCNQ2 enhance baseline: -0.45

# Part of the list above in order of count of non-hydrogen atoms, rising.
SMILES,KCNQ2 enhance,KCNQ2 enhance baseline
O=C(C[n+]1ccccc1)Nc1ccccc1,1.2,-0.51
Nn1c(Cc2cccc3ccccc23)n[nH]c1=S,0.16,0.13
CCC(NC(=S)NC1CCCCC1)c1ccccc1 (stereo not given),12*,0.6*
Cc1cccc(C(=O)NNS(=O)(=O)c2ccc(F)cc2)c1,0.95,-0.64
CCN1CCCC1CNC(=O)c1cc2ccc(OC)cc2[nH]1 (stereo not given),0.76,0.14
NC(=O)C1CCN(C(=S)c2ccc(-c3ccc(Br)cc3)o2)CC1,1,-1.9
C/C(Cc1ccccc1)=N\NC(=O)CNC(=O)c1cccc(Br)c1,0.1,-0.16
CCNC(=O)NC(=O)COC(=O)CCCSc1nc2ccccc2[nH]1,0.31,-0.29
COc1ccccc1C1/C(=C(/O)c2ccccc2)C(=O)C(=O)N1CC(C)O (stereo not given),0.41,-0.04
COc1ccc(-c2nc3ccccc3c(=O)n2CCOc2ccccc2C)cc1,0.07,-1
O=S(=O)(c1cnccc1N1CCN(/N=C/c2ccc(Br)cc2)CC1)N1CCCCC1,1.4,-0.87

# The results go on:
SMILES,KCNQ2 enhance,KCNQ2 enhance baseline
COc1cccc(-c2[nH]nc3c2C(c2ccsc2)C(C#N)=C(N)O3)c1 (stereo not given),0.46,0.97
COC(=O)C1=C(O)/C(=C\c2ccc(CNC(=O)C(=O)Nc3ccc(C)cc3)o2)N=C1C,0.77,-0.3
O=C(NCc1nnc(SCC(=O)N2CCCCCC2)o1)c1ccc(F)cc1,1.8,0.5
CCc1nnc(NC(=O)CSc2nc(-c3ccccc3)cc(-c3ccc(F)cc3)c2C#N)s1,0.4,-0.79
COCCNC(=O)c1nc2c(nnn2Cc2cc(C)ccc2C)c(=O)[nH]1,0.62,1.1
O=C(NNC(=O)C1CCC(C(=O)NNC(=O)c2cccs2)CC1)c1cccs1 (stereo not given),0.23,0.97
COc1cc(CC(=O)O)c(C(C)=O)cc1OC,0.87,-0.2
Cc1cccc(N2CCN(S(=O)(=O)c3c(C)noc3/C=C/N(C)C)CC2)c1C,0.41,0.97
COc1ccc2c(c1)c1ccccc1n2C,0.36,-0.24
COc1cc(CC(=O)Nc2ccc3nc(C)sc3c2)cc(OC)c1OC,0.26,0.44
CCOc1cc(/C=C(\C#N)C(=O)Nc2ccccc2C(=O)O)ccc1OC(=O)c1ccc(C)cc1,3.8,1
CC1=C(C(=O)Nc2ccccc2C(=O)N2CCCCC2)SCCO1,1.7,-0.08
O=C(c1ccccc1)N1CCN(S(=O)(=O)c2cccs2)CC1,2.2,-0.64
O=C(NNC(=O)c1sccc1-n1cccc1)c1cccc(Cl)c1,1.4,0.25
CCS(=O)(=O)c1ccc(N=Nc2ccc(O)c3ncccc23)c(OC)c1,0.63,-0.96
CCn1c(C)c(CCC(=O)O)c(=O)n2nc(-c3ccccc3OC)cc12,1.2,-0.58
O=Cc1cc(CCC(=O)O)ccc1O,0.62,0.01
Cc1c(O)ccc(C(=O)CN2CCN(c3ccc(F)cc3)CC2)c1O,1.1,1.5
CCOc1ccccc1N=Cc1c(O)n(C)c(=O)n(C)c1=O,0.47,0.12
CCC(CO)NC(=O)c1ccc(-c2nn(C)c(=O)c3ccccc23)cc1 (stereo not given),1.7,0
N/C(=N\OC(=O)Cc1ccc(Cl)cc1)c1ccncc1,0.26,-0.26
Cc1nn(CC(=O)Nc2cccc(Cl)c2)c(=O)c2cc(-c3ccccc3)nn12,1.8,-0.57
Cc1cc(Cl)cc(Br)c1OCCCNCC(C)O (stereo not given),1.3,0.81
CC(=O)Nc1ccc(S(C)(=O)=O)c(C)c1,1.5,-3.1
Cc1ccc(C)c(NC(=O)c2ccc(S(=O)(=O)N(C)CC3CCCO3)cc2)c1 (stereo not given),0.39,0.01
COc1cc2ncnc(NCc3ccccc3Cl)c2cc1OC,1.3,0.24
O=c1oc(-c2ccc(Br)o2)nc2ccccc12,2.6,1.5
Cc1ccc2nc(SCC(=O)Nc3cc(C)on3)[nH]c2c1,0.01,-0.36
Cc1cc2c(NCC(C)O)ncnc2s1 (stereo not given),2,-0.48
O=[N+]([O-])c1ccc2nc(CCCO)[nH]c2c1,0.69,-0.2
O=C(c1ccc[nH]c1=S)N1CCN(S(=O)(=O)c2ccc(Br)cc2Cl)CC1,0.41,0.46
CSc1ccccc1NC(=O)c1cccs1,0.02,0.59
CCCCn1c(N)c(N(CC(C)C)C(=O)CN(C)S(=O)(=O)c2ccc(NC(C)=O)cc2)c(=O)[nH]c1=O,0.63,-0.25
O=C(N/N=C\c1cc(Br)cs1)c1ccncc1,0.31,0.2
COc1ccc(OC)c(S(=O)(=O)N2CCCC(C(=O)N3CCOCC3)C2)c1 (stereo not given),0.67,3.7
CCOC(=O)c1ccc(NC(=O)CN2CCN(C(=O)c3ccco3)CC2)cc1,0.32,0.37
O=C(Cn1cc(S(=O)(=O)N2CCN(c3ccccc3F)CC2)c2ccccc2c1=O)NCCCN1CCCCCC1,0.11,0.04
Cc1cccc(Nc2ccc(NCc3ccccc3)nn2)c1,0.2,-1.9
Cc1cc(C)cc(NC(=O)Cn2c(=O)oc3cc(S(=O)(=O)N4CC(C)CC(C)C4)ccc32)c1 (stereo not given),1.1,-0.08
CC(C)c1ccc(NNC(=O)C2CCC2)cc1,3.6,-0.2
O=C(Cc1ccc([N+](=O)[O-])cc1)OCc1ccc([N+](=O)[O-])cc1,0.68,1.3
O=C(COC(=O)c1ccc(Cl)cc1O)NCCN1C(=O)CSC1=O,1.3,-1.1

# Some of the compounds tested, so the mix of outcomes need not match the whole.
